D2 ag = agonists of human D2 dopamine receptor (beta-arrestin) | P14416 | DiscoveRx PathHunter D2 beta-arrestin, luminescence, 90 min; 100% = 57 uM dopamine signal | activation, % (test concentration not listed) | hit rate 0.084% among 360,000 | AID 624465; in the data active = activation above about 40%; inconclusive = about 15% to 40%; inactive = below about 15%; also: compound concentration not given in the record; the text of the record calls up to 30% inactive
Target sequence (P14416 whole entry, looked up): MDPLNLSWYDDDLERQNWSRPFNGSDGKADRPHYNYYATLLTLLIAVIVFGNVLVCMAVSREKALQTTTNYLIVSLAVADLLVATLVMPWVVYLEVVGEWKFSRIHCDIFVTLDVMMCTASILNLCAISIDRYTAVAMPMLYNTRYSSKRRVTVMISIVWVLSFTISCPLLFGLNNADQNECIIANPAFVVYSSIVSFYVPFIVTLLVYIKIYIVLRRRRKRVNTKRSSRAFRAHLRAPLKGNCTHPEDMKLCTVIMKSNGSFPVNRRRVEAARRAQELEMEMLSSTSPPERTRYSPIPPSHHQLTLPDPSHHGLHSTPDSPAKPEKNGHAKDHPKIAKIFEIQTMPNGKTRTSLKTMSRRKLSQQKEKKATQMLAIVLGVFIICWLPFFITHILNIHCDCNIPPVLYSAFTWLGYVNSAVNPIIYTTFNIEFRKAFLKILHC
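Agonist mode: compounds alone added to overnight-plated D2 PathHunter cells for 90 min at 37 C, with 57 uM final dopamine (EC100) defining full response. Beta-arrestin recruitment detected by chemiluminescent reagent, read after 1 h at ambient temperature.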
PINK1 expr mod = PINK1 expression modulation; PINK1 immunofluorescence, high-content cytometry, 24 h; Potency, µM (doses to about 76.6 µM), without a hit: at the top dose activation (PINK1 increase), actives largely listed as activators; hit rate 0.2% among 410,000; active = well fitted activation curve with a large enough effect; inconclusive = small, poorly fitted or top-dose-only effect; inactive = flat fitted curve, though single readings scatter; cell line not stated here;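 also: potency is read from the fitted curve at half-maximal effect; % of control where 0% means no effect; nearly all actives have a fitted effect of over 65% in size; a mitochondrial uncoupler was the plate control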
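Decision-based qHTS: stable cells, 24 h exposure to five compound concentrations, CCCP as control. Fixed cells stained for PINK1 plus nuclear, mitochondrial and cell markers, cytometer read.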
gsp antag = gsp mutant antagonism; AID 624288; Potency, µM (titrated, usually from 76.9 µM), inactives show at the highest dose activity change, negative = inhibition, usual class: inhibitors; gsp-mutant cells, cAMP HTRF, 30 min; control for the full effect not named in the record; hit rate 0.4% among 340,000; active = falling curve of any shape with a large fitted effect; inconclusive = falling curve, mostly with a smaller effect; inactive = flat or rising curve; cell line not stated here;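 also: intracellular cAMP measured with PDE inhibitor Ro 20-1724 present during compound exposure; potency is read from the fitted curve at half-maximal effect; % is scaled to controls: 0 for no effect and ±100 for the full control effect; nearly all actives have a fitted effect of over 65% in size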
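HTRF cAMP read-out (cAMP-d2 plus anti-cAMP antibody-K in lysis buffer, 30 min RT). Before lysis, cells are exposed to compounds with […] for 30 min at 37C in DPBS containing Ca/Mg, BSA and Tween 20.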
gsp ag = gsp mutant agonism; gsp mutant cells, cAMP HTRF, 30 min; control for the full effect not named in the record; hit rate 0.13% among 340,000; Potency, µM (titrated, usually from 76.9 µM), inactives show top-dose activation (cAMP increase), usual class: activators; AID 624287; active = well fitted activation curve with a large enough effect; inconclusive = small, poorly fitted or top-dose-only effect, or another doubt; inactive = no such curve, though single readings can be large or run the other way; cell line not stated here;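 also: phosphodiesterase inhibitor Ro 20-1724 added with compounds to block cAMP breakdown; potency is read from the fitted curve at half-maximal effect; nearly all actives have a fitted effect of over 60% in size; about a fifth of the inactives were tested at one dose only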
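Cells stably selected in G418 were plated at 2000/well, grown 16-24 hr, then given compounds in DMSO with the PDE inhibitor […] (300 uM solution added) for 30 min at 37C; cAMP was read by HTRF.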
Sfp PPTase inh = blocks B. subtilis Sfp PPTase activity | Q9F4F7 | Biochemical Sfp PPTase activity, qHTS | Potency, µM, for the others: max response, negative = inhibition, hits mostly inhibitors | hit rate 3.5% among 310,000 | AID 1490; active = well fitted inhibition curve with a large enough effect; inconclusive = small, poorly fitted or top-dose-only effect, or another doubt; inactive = no such curve, though single readings can be large or run the other way;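 also: the enzyme is Sfp with the accession as filed and its product quenches rhodamine fluorescence; potency is read from the fitted curve at half-maximal effect; 0% = enzyme reaction without inhibitor and -100% = no enzyme wells; top concentration of the series not given in the record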
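Step 1, compound plus 15 nM Sfp-PPTase, 15 min, room temperature. Step 2, add rhodamine-CoA (5 uM) and BHQ-2-YbbR (12.5 uM). Step 3, read 525/598 nm fluorescence at 0 and 30 min.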
Menin MLL FP FL = menin-MLL binding inhibition, fluorescein peptide. Fluorescence polarization, fluorescein-MLL peptide displacement from menin. FP activity change, % at 61.4 µM. 290,000 tested, under 10 active; inconclusive = falling polarisation curve, or a change in total fluorescence; inactive = total fluorescence flat and polarisation flat or rising; no compound was filed as active; the % refers to the polarisation; negative = inhibition;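 also: % of control where 0% means no effect; inhibitors lower the polarisation; unlabelled MLL peptide was the positive control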
ClpP mod = qHTS Assay for Activators of ClpP; purified B. subtilis ClpP, FRET peptide cleavage, 20 min; hit rate 1.9% among 340,000; Potency, µM (top dose mostly 57.5 µM), for inactives: top-dose activity change, negative = active; ATP-dependent Clp protease proteolytic subunit (Bacillus subtilis (strain 168)), P80244; active = well fitted falling curve with a large enough effect; inconclusive = small, poorly fitted or top-dose-only effect; inactive = no such curve, though single readings can be large or run the other way; also: potency is read from the fitted curve at half-maximal effect; the source files actives as falling curves though it sought activators and does not explain the sign; nearly all actives have a fitted effect of over 65% in size; many hits overshoot -100%
Target sequence (P80244 whole entry, looked up): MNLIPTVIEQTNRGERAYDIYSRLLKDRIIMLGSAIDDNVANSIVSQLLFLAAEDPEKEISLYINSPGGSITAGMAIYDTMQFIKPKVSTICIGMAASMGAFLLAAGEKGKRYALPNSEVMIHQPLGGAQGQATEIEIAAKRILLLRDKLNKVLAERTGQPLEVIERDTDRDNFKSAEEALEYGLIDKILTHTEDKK
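ClpP 10 microg/mL final, pH 8 Tris/KCl buffer with BSA, glycerol, Tween-20; compound pinned in; FRET-FV substrate; RT 20 min; Ex320/Em430; ΔFRET vs ADEP 5.8 microM, DMSO, no enzyme.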
* hit, by the source's call; ? = inconclusive; . = not tested or not shown; [ ] = another dose, or the depositor's remark.

SMILES | D2 ag | PINK1 expr mod | gsp antag | gsp ag | Sfp PPTase inh | Menin MLL FP FL | ClpP mod
O=C(CCCC(=O)OCC(F)(F)C(F)F)Nc1ccc(NC(=O)CCCC(=O)OCC(F)(F)C(F)F)cc1 | -1.9 | 6.2%[38.3 µM] | 5.8% | ? | 4.4% | 9.3 | 1.3%
Cc1ccccc1NCc1nnc2n1CCCCC2 | 0.5 | -1.3% | 1.8% | -35.8%[inhibitor] | 6.1% | -1.3 | 0.6%
COc1ccc(C(=O)Cc2cc(OC)c(OC)cc2[N+](=O)[O-])c(OC)c1 | 0.1 | . | 2.9% | 4.4% | 14.1% | 0.2 | -12.9%
CCOC(=O)CC1C(=O)NCCN1C(=S)NC(=O)c1ccc(C)c(Br)c1 (configuration not stated) | -3.9 | -0.2% | . | -37.7%[inhibitor] | . | . | 1.8%
Nc1nonc1-n1nnc(C(=O)N/N=C/c2ccco2)c1-c1ccccc1 | 2.5 | -2.3% | -11.8% | -0.8% | 26.8% | 7.2 | .
CC(=O)NC(Cc1c[nH]c2ccccc12)C(=O)NCCc1ccccc1 (configuration not stated) | -4.8 | 1.1% | 8.6% | ? | 14.2% | -1.4 | -7.4%
CN(Cc1ccccn1)Cc1nc(Cc2ccccc2Cl)no1 | -2.6 | 0.6% | -1.5% | 20.6%[15.4 µM] | 10.7% | -0.7 | .
CCOCc1c(C(=O)NC2CCCCCC2)oc2ccccc12 | 1.1 | -0.5% | -0.6% | -34.4%[inhibitor] | -10.9% | 5.0 | .
CCc1ccc(OCC(=O)Nc2ccc3c(c2)OCCO3)cc1 | 6.8 | 3.3% | -1.4% | -1.6% | 2.4% | 6.2 | .
CC(NCC(=O)Nc1cc(Cl)cc(Cl)c1)c1ccccc1 (configuration not stated) | -4.1 | ? | -11.7% | ? | ? | -0.6 | 0.3%
CN(C(=O)COC(=O)c1cc(Br)c(Br)s1)C1CCS(=O)(=O)C1 (configuration not stated) | -1.0 | -0.9% | 8.0% | -9.2% | 15.6% | 7.7 | -2.5%
CC(=O)N1N=C(c2ccccc2)CC1c1cn(C)c2ccccc12 (configuration not stated) | -5.4 | 3.4% | -4.4% | -29.2% | -12.6% | 5.6 | ?
CC1(C)C2CCC1(C)C(OCC[N+](C)(C)CC(=O)OC1CCCCC1)C2 (configuration not stated) | 1.1 | 10.7% | 10.8% | 18.2% | -3.6% | -0.9 | 1.9%
C=CCOc1ccc2oc(=O)cc(C)c2c1 | 2.6 | 2.1% | 8.5% | 2.7% | -1.3% | 4.2 | -27.3%
CC(C)(C)CN1CCN(Cc2cc3ccccc3[nH]2)CC1CCO (configuration not stated) | -4.9 | 1.7% | -0.7% | -4.3% | 10.3% | 6.5 | -5.9%
COc1cc(CN2C[C@@H](CO)O[C@@H](n3cnc4c(Nc5ccccc5)ncnc43)C2)cc(OC)c1OC | 7.3 | 4.1% | . | . | . | . | -5.9%
O=C(COC(=O)CC(c1ccccc1)c1ccccc1)NCc1ccc(Cl)cc1 | 1.6 | ? | -12.6% | 19.4% | 7.0% | 13.9 | 0.9%
C=CCN(Cc1cn(C)nc1-c1cccc(Cl)c1)C1CCS(=O)(=O)C1 (configuration not stated) | 1.8 | 0.0% | -8.8% | ? | 12.8% | -1.7 | .
COc1ccc(S(=O)(=O)N(C)C)cc1NC(=O)c1ccc2c(c1)OCCO2 | -2.5 | 0.5% | -13.7% | ? | . | . | 0.3%
C=CCSc1nnnn1-c1ccc(OC)cc1 | -0.5 | 3.3%[38.3 µM] | 9.5% | -50.3%[inhibitor] | 10.5% | 1.7 | -1.1%
Cc1ccccc1C(=O)Nc1cccc(C(=O)N/N=C/c2ccc3c(c2)OCO3)c1 | 1.5 | 9.5% | 18.7% | -4.7% | 7.2% | -5.0 | .
N#Cc1c(SCC(=O)Nc2ccc(C(F)(F)F)cc2)sc2c(O)cc(=O)[nH]c12 | -0.9 | -1.6% | 7.7% | 4.7%[15.4 µM] | ? | 14.8 | .
O=C(CC(=O)NC1CCCCC1)N/N=C/c1ccccc1[N+](=O)[O-] | 2.8 | 0.5% | 6.8% | ? | 21.8% | 2.6 | .
CC(C)(C)NC(=O)CN(C(=O)C(=O)Nc1ccc2c(c1)OCCO2)C(C)(C)C | -0.2 | 0.8% | 8.4% | 0.2%[15.4 µM] | 6.2% | -5.3 | -1.8%
Cc1cc2c(NS(=O)(=O)c3ccc(F)cc3)cccc2nn1 | -4.3 | 1.6% | 0.2% | -34.0%[inhibitor] | 10.0% | -0.4 | -2.4%
Cc1c(CN2CCN(C)C(CCO)C2)[nH]c2c(Cl)cccc12 (configuration not stated) | -0.7 | -1.2% | 0.0% | -11.7%[15.4 µM] | 5.9% | -0.2 | 0.8%
Cc1ccnc(N2CCN(C(=O)CSc3nc4ccccc4nc3N3CCCCC3)CC2)c1 | -1.7 | -0.5% | -8.7% | -12.7% | ? | 12.9 | -14.5%
N#Cc1c(N)n(C2CCCCC2)c2nc3ccccc3nc12 | -0.8 | 8.0% | 0.4% | 13.3% | 15.8% | 0.6 | 31.6µM*
CC(C)c1ccccc1NC(=S)NC1CCN(Cc2ccccc2)CC1 | -5.1 | 2.3% | 4.7% | -3.8%[15.4 µM] | 4.6% | -0.3 | -2.1%
CC(C)(CO)NC(=O)c1ccc2c(c1)C(=O)c1ccccc1-2 | 2.6 | 2.6% | 7.7% | 19.5% | -2.7% | 3.6 | .
S=c1nc[nH]c2c1ncn2-c1ccc(Cl)cc1 | -2.6 | -0.8% | 3.5% | 4.5%[15.4 µM] | . | . | 0.9%
Cc1ccc(S(=O)(=O)N2CCCN(S(=O)(=O)C3CCS(=O)(=O)C3)CC2)cc1 (configuration not stated) | 0.4 | ? | -1.8% | 7.6% | 10.7% | 2.0 | -0.7%
COc1ccc(CC(=O)Nc2ccc(N(C)C)c3ccccc23)cc1 | 5.6 | 4.7% | -0.7% | -0.4%[15.4 µM] | 13.1% | -8.2 | -0.7%
COC(=O)C1CCN(C(=O)Nc2ccc(OC)cc2)CC1 | -1.8 | -0.3% | 9.9% | -60.8%[inhibitor] | 8.4% | 2.3 | 1.0%
Cc1ccc(NC(=O)c2ncn(CCCNCC3CCCCC3)n2)cc1C | -7.3 | 2.9% | . | -43.9%[inhibitor] | . | . | 0.5%
Cc1ccc(S(=O)(=O)N/N=C\c2ccc3c(c2)OCO3)cc1C | -4.3 | 1.0% | -3.2% | 0.2%[15.4 µM] | 0.6% | . | .
O=C(N/C(=C\c1ccccc1)C(=O)N1CCOCC1)c1ccc(Br)o1 | 0.1 | -1.4% | -0.3% | ? | 4.5% | -0.9 | .
Cc1ccsc1C(=O)OCC(=O)Nc1cccc(S(=O)(=O)NC2=NCCCCC2)c1 | -1.0 | 0.4% | -9.0% | -10.8% | -8.6% | -8.8 | -0.3%
C=C(C)CN1CCN(c2ccc(N3C(=O)CCCC3=O)cc2[N+](=O)[O-])CC1 | -5.2 | 2.9% | 21.7% | -11.0% | 10.8% | 4.1 | 3.1%
COCC(C)NC(=O)c1cc(OC)cc(OC)c1 (configuration not stated) | -0.8 | 0.6% | 16.2% | ? | 15.0% | 2.1 | .
C=CCn1c(Cc2cccs2)nnc1SCC(=O)c1ccc(F)cc1 | -2.0 | -2.8% | -0.3% | -6.4% | 2.2% | -0.2 | 0.3%
CC(C)c1ccccc1OCC(O)CN(CC(O)COc1cccc2ccccc12)C(C)C (configuration not stated) | -3.6 | -1.7% | -3.8% | -1.2%[15.4 µM] | ? | -0.2 | .
O=C(CSc1nc2ccccc2c(=O)n1-c1ccc(F)cc1)Nc1cc(S(=O)(=O)N2CCOCC2)ccc1Cl | -4.8 | 7.3% | 7.3% | 8.4% | 4.2% | -4.7 | -5.6%
O=C(CSc1ccc(Cl)cc1)NC(=O)c1ccccc1 | 1.1 | -1.1% | 5.5% | -29.5% | . | . | -3.4%
O=c1c2c(nc3nc(NCc4cccc5ccccc45)[nH]n13)CCC2 | -2.5 | 0.6% | -2.2% | -54.0%[15.4 µM] | 13.2% | -4.0 | .
COc1ccc(CC(=O)NNC(=O)c2ccc(Br)o2)cc1 | -1.0 | -0.3% | 11.7% | -2.4% | 8.9% | . | -1.7%
Cc1ccc2[nH]c(=O)c(CN(CCCO)S(=O)(=O)c3cccc4nsnc34)cc2c1 | -1.3 | -6.8%[38.3 µM] | -10.3% | -24.7% | 13.4% | 2.0 | 1.4%
O=C1NC(=S)N/C1=C/C=C/c1ccccc1 | 3.0 | 0.1% | -13.3% | -43.5%[inhibitor] | 18.7% | -1.3 | .
O=C(NCCN1CCOCC1)Nc1ccc(Cl)cc1 | 0.4 | 2.2% | 16.8% | ? | 9.1% | 4.8 | -3.1%
COc1ccc(CCNC(=O)/C(C#N)=C2\N=C(NC(=O)c3ccco3)c3ccccc32)cc1 | -3.3 | 12.5% | ? | 20.3% | 6.0% | ? | .
(cont.)
SMILES | D2 ag | PINK1 expr mod | gsp antag | gsp ag | Sfp PPTase inh | Menin MLL FP FL | ClpP mod
Cc1ccc(N2CCN(S(=O)(=O)c3ccc4oc(=O)ccc4c3)CC2)cc1Cl | -3.7 | 9.0% | 11.0% | 3.6%[15.4 µM] | 6.2% | . | .
CCCCn1nnc(NC(=O)CCC)n1 | -2.8 | 6.2%[38.3 µM] | -9.8% | -5.9% | -4.8% | 2.8 | 3.5%
COCCNc1ncnc2ccc(-c3ccccc3CN(C)C)cc12 | . | 1.6% | . | . | 5.4% | 0.6 | .
O=C(COc1ccc(S(=O)(=O)N2CCCC2)cc1Cl)NCc1ccco1 | -2.3 | 0.0%[38.3 µM] | 3.1% | 7.1% | 18.0% | 0.4 | 1.5%
CCOC(=O)c1ccc(NC(=O)c2ccc(CN3CCc4ccccc4C3)cc2)cc1 | 2.0 | 3.6% | -17.4% | -38.6%[15.4 µM] | 17.5% | 0.3 | -0.4%
Cc1c(NC(=O)c2ccc(NC(=O)C3CC3)cc2)cccc1C(=O)O | -4.3 | 0.2% | -1.8% | -14.8% | 10.1% | 2.4 | 0.3%
NC(=O)NN=C1CCn2cccc21 | 1.3 | -3.8% | 1.0% | 6.4% | . | . | -3.6%
CCOC(=O)C1CCC(CNCc2ccc(Cl)cc2)CC1 (configuration not stated) | -0.8 | 1.2% | 7.9% | 4.1% | 4.0% | ? | 1.8%
O=C(c1cccs1)N1CCCC(N2CCN(c3cccc(C(F)(F)F)c3)CC2)C1 (configuration not stated) | -5.1 | -1.5% | -14.3% | 11.2%[15.4 µM] | 5.1% | . | 0.6%
CC(C)Nc1nc(N)c(C(=O)C23CC4CC(CC(C4)C2)C3)s1 | 0.3 | 3.9% | -11.7% | 20.4% | 2.0% | 3.0 | 1.3%

Source: PubChem
